FGF22 binding – binders of recombinant human FGF22 by thermal shift; Q9HCT0; SYPRO orange fluorescence; percent of sucrose octasulfate shift, DMSO zero; calls only at 9.99 µM; actives 1.5% (n = 340,000);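 active = melting point raised past a set limit in the mean and every replicate; inconclusive = no clear call; three in four hits are not shown here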
Target sequence (Q9HCT0 whole entry, looked up): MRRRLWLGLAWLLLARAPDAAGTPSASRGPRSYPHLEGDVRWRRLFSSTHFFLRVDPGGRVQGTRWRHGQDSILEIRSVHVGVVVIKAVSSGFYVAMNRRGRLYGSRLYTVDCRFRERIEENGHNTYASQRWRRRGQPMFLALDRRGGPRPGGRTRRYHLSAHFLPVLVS
E coli growth – E. coli growth inhibition; Escherichia coli growth, OD600, 23 h; hits give low values; OD600 absorbance (test concentration not listed); actives 0.21% (n = 330,000);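 active = OD600 absorbance below the run mean of sample wells minus 3.6 SD, in any replicate, cut at about 0.56 in these data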;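 note: stock transfer was 300 nL into about 60 µL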
rRNA inh HTS – inhibitors of bacterial rRNA selective over humanized ribosomes | actives 1.6% (n = 350,000) | GFP signal change (wild-type ribosome), % (concentration not given with the values) | E. coli WT GFP vs humanized-ribosome RFP mutants, fluorescence, 24 h; hits give low values; DMSO median 0, no signal -100 | AID 720706;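 active = significant combined selectivity score with lowered wild-type GFP, culture density cut under 30%, mutant RFP and density less affected; inactive = any of these conditions unmet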; note: one replicate is shown; some compounds called inactive have numbers as strong as hits
ALR inh – human ALR oxidase inhibition via reduced H2O2; P55789; purified ALR, DTT oxidation, H2O2 HRP-luminol luminescence; inhibition, % (concentration not given with the values); actives 3.8% (n = 290,000); AID 485317;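 active = mean and each replicate at 75% or more; inconclusive = only one of the two met; inactive = neither met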;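 note: stock transfer was 7.5 nL into about 7.5 µL; 0% = neutral wells and 100% = wells with inactivated enzyme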
Target sequence (P55789 whole entry, looked up): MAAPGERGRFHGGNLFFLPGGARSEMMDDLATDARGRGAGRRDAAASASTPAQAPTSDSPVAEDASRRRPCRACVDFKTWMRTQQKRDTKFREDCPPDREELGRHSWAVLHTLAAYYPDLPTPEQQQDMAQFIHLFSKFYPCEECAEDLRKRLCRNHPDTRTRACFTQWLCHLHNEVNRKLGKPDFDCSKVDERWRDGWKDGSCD
AF4-AF9 inh – inhibitors of human MLL-AF4/AF9 interaction; P42568; AlphaScreen, biotin-AF4 peptide binding to FLAG-AF9; inhibition, % at 10 µM; actives 0.47% (n = 350,000);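 active = every replicate reaching a set inhibition limit, whatever the replicate mean, cut at about 25% in these data; inconclusive = mean inhibition reaches that limit but some replicates miss it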;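 note: 0% = plate neutral control median and 100% = total signal loss; the record names both 10 and 1 µM as test concentration; the first replicate is given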
Target sequence (P42568 whole entry, looked up): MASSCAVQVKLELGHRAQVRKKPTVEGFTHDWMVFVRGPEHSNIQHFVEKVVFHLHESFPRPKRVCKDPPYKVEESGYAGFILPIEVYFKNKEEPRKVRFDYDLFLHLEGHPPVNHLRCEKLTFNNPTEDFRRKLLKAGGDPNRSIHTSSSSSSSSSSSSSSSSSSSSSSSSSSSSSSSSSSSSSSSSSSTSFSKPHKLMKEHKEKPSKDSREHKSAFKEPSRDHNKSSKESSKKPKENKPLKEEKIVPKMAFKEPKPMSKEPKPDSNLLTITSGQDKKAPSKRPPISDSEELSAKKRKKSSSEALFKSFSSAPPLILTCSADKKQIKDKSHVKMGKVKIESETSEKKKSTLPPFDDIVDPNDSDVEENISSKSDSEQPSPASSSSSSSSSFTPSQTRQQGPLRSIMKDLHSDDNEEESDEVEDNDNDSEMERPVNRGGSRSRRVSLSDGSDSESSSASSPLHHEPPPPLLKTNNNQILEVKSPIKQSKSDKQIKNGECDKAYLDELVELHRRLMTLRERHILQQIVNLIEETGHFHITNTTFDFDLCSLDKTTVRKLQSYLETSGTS
HNF4A DNA FP – change in binding of human HNF4 alpha to DNA; AID 1224865; P41235; HNF4a-FITC DNA binding, fluorescence polarization, 1 h; actives 0.3% (n = 360,000); activity change, % at 10 µM; in the data active = activity change above about 30%, passing the limit was not always enough;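 note: controls were the assay level and a saturating level of protein; the project sought stronger binding though the title names inhibitors; some compounds called inactive have numbers as strong as hits; positive values seem to mean higher polarization but the record does not say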
Vif A3G – inhibitors of Vif binding to APOBEC3G peptide, primary screen, biochemical, TR-FRET, GST-Vif 1-94, biotin-A3G peptide, dose response retest (AID 1117319); TR-FRET GST-Vif / biotin-A3G peptide binding; higher % means a stronger effect; test concentration not given here; strong numbers were not always called active; inhibition, %; hits with a dose series show IC50 in µM; actives 0.57% (n = 260,000);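 active = above the screen mean plus three standard deviations and confirmed in dose response; inconclusive = results disagree or hit not tested in dose response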;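 note: Vif residues 1-94 fused to GST binding biotinylated APOBEC3G peptide 110-148; 0% = full assay without inhibitor and 100% = GST in place of GST-Vif; retest series ran down from 100 µM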
rRNA inh HTS OD600 – further read-out of rRNA inh HTS, marked with its call; OD600 change, %; measured here: OD600 growth;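 optical density of the mix in the first replicate; 0 = DMSO median and -100 = no signal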
rRNA inh HTS RFP – second read-out of rRNA inh HTS, no call of its own (marks repeat the call); RFP signal change, %; measured here: RFP humanized mutant strains;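 first replicate; 0 = DMSO median and -100 = no signal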
The depositor's hits bear a star; i = inactive; ? = inconclusive; / = not tested or not shown; & = joins results of further samples. This is a subset. The share of hits here may be higher or lower than overall.

SMILES	FGF22 binding	E coli growth	rRNA inh HTS	rRNA inh HTS OD600	rRNA inh HTS RFP	ALR inh	AF4-AF9 inh	HNF4A DNA FP	Vif A3G
CCC(=O)N1C[C@H](O)COC[C@@H]2O[C@H](CC(=O)NCc3ccc(Oc4ccccc4)cc3)CC[C@H]21	i	/	-2	4	2.0	/	-0.2	/	/
C[C@@H]1CN([C@H](C)CO)C(=O)c2cccc(NC(=O)Nc3ccc(C(F)(F)F)cc3)c2O[C@@H]1CN(C)C(=O)Nc1ccc(C(F)(F)F)cc1	i	/	-2	-2	-0.4	/	2.4	/	/
COc1ccc(C2CC(=O)N(CC(=O)NCC3CCCO3)c3ccccc3S2)cc1 (centres undefined)	i	0.7	2	5	1.7	-8	-5.7	1.5	10%
C[C@@H]1CCCCO[C@H](CN(C)S(=O)(=O)c2ccccc2)[C@@H](C)CN([C@H](C)CO)C(=O)c2cc(NC(=O)Nc3ccc(F)cc3)ccc2O1	i	/	4	6	-0.8	/	2.2	/	/
COc1ccc(CC(N)c2csc(NC(=O)Nc3ccc(OC)cc3)n2)cc1 (centres undefined)	i	/	-5	-19	-4.7	/	8.6	4.6	/
CC(C)Oc1ccc(S(=O)(=O)N2CCOCC2)cc1NC(=O)C1=NN(c2ccccc2)C(=O)CC1	i	0.72	-11	-9	0.0	/	2.2	2.0	7%
C/C=C/c1cnc2c(c1)C(=O)N([C@@H](C)CO)C[C@@H](C)[C@@H](CN(C)C(=O)NC1CCCCC1)O2	i	/	7	14	-3.8	/	-3.5	/	/
COCCn1c(SCC(=O)N2CCC(C)CC2)nc2c(c1=O)SCC2	i	0.68	2	1	3.2	-1	-1.3	2.4	/
Cc1ccccc1S(=O)(=O)Nc1cccnc1	/	0.68	/	/	/	-8	/	0.2	18%
O=C(C1=C[C@H](c2ccccc2)C[C@H](OCc2ccc(CO)cc2)O1)N1CCN(Cc2ccc3c(c2)OCO3)CC1	i	/	-8	-8	-6.8	-6	7.3&-0.6	-0.3	23%
CC(C)c1ccccc1-n1cc[nH]c1=S	i	0.71	13	-5	1.5	26	-1.1	-0.4	-9%
CCOC(=O)N1CCN(C(=O)CCn2nc(-c3ccc(Cl)cc3)ccc2=O)CC1	/	0.68	/	/	/	-2	/	-8.4	1%
C[C@H]1CN([C@@H](C)CO)C(=O)c2cccc(NC(=O)NC3CCCCC3)c2O[C@H]1CN(C)S(=O)(=O)c1cccs1	i	/	-2	0	0.1	/	-1.7	/	/
Cc1cc(C(=O)Nc2cccc3c2O[C@@H](CN(C)S(=O)(=O)c2cn(C)cn2)[C@H](C)CN([C@H](C)CO)C3=O)n(C)n1	i	/	0	7	0.7	/	-3.6	/	/
COc1ccccc1NC(=S)N1C2CCC1CC(NC(=O)NC13CC4CC(CC(C4)C1)C3)C2 (centres undefined)	/	0.71	/	/	/	-4	/	-2.7	21%
COc1cccc(C#Cc2cnc3c(c2)C(=O)N([C@@H](C)CO)C[C@H](C)[C@@H](CN(C)C(=O)C2CC2)O3)c1	i	/	1	-5	4.8	/	0.8	/	/
COc1ccc(NS(=O)(=O)c2cccc(N3CC(O)=C(c4ccccc4)C3=N)c2)cc1	i	0.72	1	5	-2.1	4	0.2	-1.1	15%
Cc1cc(OCC(=O)Nc2ccc(CN3CCCCC3)cc2)ccc1Cl	i	0.67	4	5	1.7	-14	1.2	-2.5	/
COc1ccc(C(=O)N2CCC(C)(C(=O)NS(=O)(=O)C3CC3)C2)cc1F (centres undefined)	i	/	4	13	1.2	/	-3.2	3.6	/
Cn1c(-c2ccccc2O)cc2ccccc21	/	0.77	/	/	/	/	/	1.1	2%
COCCCNC(=S)N(Cc1ccccc1)Cc1nc2ccccc2c(=O)[nH]1	i	0.71	19	4	5.3	-3	-5.5	0.5	-3%
Cc1ccc(NC(=O)CN(C)S(=O)(=O)c2cccs2)c(Br)c1	i	0.71	-25	-23	-4.6	-8	-0.8	7.5	/
CC(C)c1ccc(CNCc2ccccc2)cc1	/	0.62	/	/	/	-2	/	0.9	-2%
Cc1ccc(S(=O)(=O)Nc2c(C)n(C)n(-c3ccccc3)c2=O)cc1C(=O)NCc1ccco1	i	0.68	8	6	1.1	/	2.2	5.2	/
Cc1c(Cl)cccc1NC(=O)Cc1cccs1	i	0.69	-1	1	-1.4	-1	-5.9	-0.7	/
O=C(CN1C(=O)c2ccccc2S1(=O)=O)NCc1cccnc1	/	0.67	/	/	/	-26	/	1.3	1%
COC(=O)c1sccc1NC(=O)C1CC(C)=C(C)CC1C(=O)O (centres undefined)	i	0.66	-5	0	-2.2	0	30*	0.1	-2%
CCC1CCCCN1C(=O)CSc1nnc(-c2ccc(Cl)cc2)o1 (centres undefined)	i	0.68	1	0	-0.2	-3	0.9	4.6	4%
CCOC(=O)N1CCN(C(=O)CCc2c(C)nc3nc(C)nn3c2C)CC1	/	0.68	/	/	/	49	/	5.5	13%
C[C@@H]1CN([C@@H](C)CO)S(=O)(=O)c2ccc(C#Cc3ccccc3F)cc2O[C@H]1CN(C)CC1CC1	i	/	-3	-14	11	/	-1.8	/	/
CCOc1ccc(C(=O)NCC(=O)OCC(=O)Nc2ccc(C)c(S(=O)(=O)N(C)C)c2)cc1	i	0.67	14	11	3.4	-6	-0.7	-4.4	5%
S=c1[nH]nc2n1CCCN2	i	0.66	6	2	0.1	95*	0.5	-2.4	?
COCCn1c(SCC(=O)Nc2ncc(Cl)c(C)c2Cl)nc2ccccc21	/	0.7	/	/	/	/	/	1.0	27%
CCc1c(C)sc(NC(=O)c2ccc(Br)o2)c1C(=O)OC	/	0.72	/	/	/	-2	/	-1.1	-25%
COc1ccc2[nH]c(O)c(N=NC(=N)N)c2c1	i	0.72	/	/	/	7	-3.8	5.2	/
O=C(COc1ccccc1Cl)NCCCNC(=O)c1ccncc1	i	0.67	0	4	-1.6	-25	-1.4	-0.1	/
O=C(O)CC/C(=N/NC(=O)CNC(=O)C(c1ccccc1)c1ccccc1)c1ccccc1	i	/	4	12	3.9	/	-30	-3.5	21%
COc1cccc(NC(=O)CCC(=O)Nc2cccc(OC)c2)c1	/	0.69	/	/	/	5	/	4.8	-3%
CCc1ccc[n+](-c2[nH]c(=O)sc2/C=N/N=C(\N)[O-])c1	i	/	3	5	0.9	/	-0.9	0.4	/
CC(C)(C)c1cc(OC(=O)C2CCCC2)ccc1O	i	0.66	14	12	2.5	22	-0.8	-1.6	/
O=C(c1cc(-c2ccccc2O)on1)N1CCOCC1	i	0.65	6	11	0.3	/	-2.0	4.0	/
CO[C@@H]1CN(C)C(=O)c2cc(C#N)ccc2OC[C@H]2O[C@H](CC[C@H]2OC)CCN(C)C(=O)[C@H]1C	i	/	5	8	-1.2	/	-8.1	/	/
O=C(CN1CCN(c2ccccc2O)CC1)Nc1cc(S(=O)(=O)N2CCCC2)ccc1Cl	i	0.67	1	-21	3.7	12	-3.1	0.7	4%
NC(=O)COC(=O)c1cc(=O)[nH]c2ccc(S(=O)(=O)Nc3ccc(F)cc3)cc12	i	0.74	2	1	0.4	-7	1.2	-0.5	/
OCCNc1nc(Nc2ccccc2Cl)nc(N2CCCC2)n1	i	0.7	-25	-26	9.6	56	3.6	4.6	/
CC1CC2(CCCCC2)Nc2c1ccc1ccccc21 (centres undefined)	/	0.69	/	/	/	-17	/	5.4	?
COC(C[C@@H]1O[C@@H]1[C@@H](O)[C@@H](C)OCc1ccccc1)OC	i	/	4	1	3.2	/	-19	-1.9	-3%
COc1ccc(CONc2ncnc3nonc23)cc1[N+](=O)[O-]	i	0.67	-25*	-20*	0.6*	-14	1.7	-2.3	0%
CN1[C@@H]2c3ccc(-c4cccnc4)c(=O)n3C[C@H]1[C@H](CO)[C@H]2C(=O)N1CCC(Cc2ccccc2)CC1	i	/	2	0	-3.3	/	1.6	/	/
COCCNC(=O)C1Nc2ccc(C(F)(F)F)cc2C2C=CCC12 (centres undefined)	i	0.66	5	13	10	-11	3.3	1.1	/
COc1ccc(OC)c(C2=NS(=O)(=O)N(C)C(C(=O)NCc3cccs3)=C2)c1	i	0.67	-6	-22	-0.4	-1	2.4	2.4	/
COc1ccc(NC(=O)c2cc(S(=O)(=O)N3CCCCC3)c[nH]2)cc1Cl	i	0.71	4	13	-0.8	-4	0.5	-2.6	/
COC(=O)COc1ccc2cc(-c3ccccc3)c(=O)oc2c1	i	0.67	2	7	1.9	/	1.7	0.6	/
COc1ccc(NC(=O)C2(C)CCN2Cc2cccc(OC)c2OC)cc1OC (centres undefined)	i	/	-6	-11	-1.1	/	1.7	1.1	/
COc1ccc(S(=O)(=O)N[C@@H]2CC[C@@H](CC(=O)N3CCN(c4ccccc4)CC3)O[C@@H]2CO)cc1	i	/	-1	1	0.7	/	1.7	/	/
CCCCc1c(C)nc2ccc(OC)cc2c1SCCC(=O)O	i	0.67	-11	4	2.1	5	-2.2	-9.1	/
CNC(=O)N(O)C1N(c2ccccc2)C(=S)SC1(C)C (centres undefined)	/	0.68	/	/	/	-1	/	0.2	12%
O=C(CN1C(=O)S/C(=C\C=C\c2ccccc2)C1=O)N1CCOCC1	i	0.64	6	-2	0.5	-13	-5.4	0.9	1%
Cc1ccc([C@H]2N[C@]3(CCCN(Cc4ccc(Br)cc4)C3=O)[C@H]3C(=O)N(C)C(=O)[C@@H]23)cc1	i	/	/	/	/	/	3.1	0.3	3%
CCC(=O)N(C)C[C@@H]1Oc2ncc(-c3cccc(OC)c3)cc2C(=O)N([C@@H](C)CO)C[C@@H]1C	i	/	7	11	-2.7	/	-5.7	/	/
New compounds follow
SMILES	FGF22 binding	E coli growth	rRNA inh HTS	rRNA inh HTS OD600	rRNA inh HTS RFP	ALR inh	AF4-AF9 inh	HNF4A DNA FP	Vif A3G
COCCCN1C(=O)C(CC(=O)NCC2CCCCC2)CC(C(=O)N(C)C)=C1C (centres undefined)	i	/	26	7	3.9	/	-2.3	3.2	8%
O=C(O)c1cc2ccc(O)cc2oc1=O	i	/	36	14	3.3	/	2.1	1.0	1%
CN(C)c1ccc(-c2nnc(-c3cccnc3)o2)cc1	i	0.66	4	5	-0.4	-5	-0.3	-3.3	/
COc1ccc(Cl)cc1-c1nc(SCC(=O)NC(C)C(C)C)n[nH]1 (centres undefined)	i	0.67	-9	-1	17	-8	-4.6	-4.3	-2%
CCN(C(=O)COC(=O)CCC(=O)c1cccs1)C1CCCCC1	i	0.69	0	0	-2.2	/	-1.1	2.4	/
CCN1CCN(c2ncc3c(n2)CC(c2cc(OC)c(OC)c(OC)c2)CC3=O)CC1 (centres undefined)	/	0.73	/	/	/	/	/	-1.0	-4%
CN1CCC(N(C)CC(=O)Nc2ccc3c(c2)OC(F)(F)O3)CC1	i	0.68	10	6	-0.8	0	-11	-2.8	4%

Some of these compounds in order of count of non-hydrogen atoms, smallest number first.
SMILES	FGF22 binding	E coli growth	rRNA inh HTS	rRNA inh HTS OD600	rRNA inh HTS RFP	ALR inh	AF4-AF9 inh	HNF4A DNA FP	Vif A3G
CN(C)c1ccc(-c2nnc(-c3cccnc3)o2)cc1	i	0.66	4	5	-0.4	-5	-0.3	-3.3	/
CCN(C(=O)COC(=O)CCC(=O)c1cccs1)C1CCCCC1	i	0.69	0	0	-2.2	/	-1.1	2.4	/
COCCCN1C(=O)C(CC(=O)NCC2CCCCC2)CC(C(=O)N(C)C)=C1C (centres undefined)	i	/	26	7	3.9	/	-2.3	3.2	8%
CCN1CCN(c2ncc3c(n2)CC(c2cc(OC)c(OC)c(OC)c2)CC3=O)CC1 (centres undefined)	/	0.73	/	/	/	/	/	-1.0	-4%
CCC(=O)N(C)C[C@@H]1Oc2ncc(-c3cccc(OC)c3)cc2C(=O)N([C@@H](C)CO)C[C@@H]1C	i	/	7	11	-2.7	/	-5.7	/	/
